WNV protease inh: inhibitors of WNV NS2B-NS3 protease, primary screen, biochemical, fluorogenic substrate. Genome polyprotein (West Nile virus), P06935. fluorogenic substrate Ex360/Em465; stronger effect = lower value. z-score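 (tested at a level between 10 and 100 µM)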. actives 0.18% (n = 65,000). AID 577, 2007;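 active = z-score at -3 or under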;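 also: score is relative to mean and spread of the compound wells of a plate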
Target sequence (P06935 1371-1501 limits assumed): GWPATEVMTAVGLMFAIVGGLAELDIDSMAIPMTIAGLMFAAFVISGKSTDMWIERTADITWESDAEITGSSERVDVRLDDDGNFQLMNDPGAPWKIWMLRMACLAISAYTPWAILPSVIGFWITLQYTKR
Target sequence (P06935 1502-1679 limits assumed): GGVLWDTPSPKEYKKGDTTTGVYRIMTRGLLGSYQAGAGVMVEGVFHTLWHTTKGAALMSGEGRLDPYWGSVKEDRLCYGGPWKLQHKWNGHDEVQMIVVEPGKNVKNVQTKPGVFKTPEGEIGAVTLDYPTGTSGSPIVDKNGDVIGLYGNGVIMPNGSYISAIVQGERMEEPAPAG
Hsc70 ATP site: Hsc70 inhibitors, probe displacement, primary screen, biochemical, fluorescence polarization (AID 568); Hsc70 fluorescence polarization, probe displacement; higher % means a stronger effect; strong numbers were not always called active; 83,000 tested, under 10 active; Heat shock cognate 71 kDa protein (Homo sapiens); displacement, % at 20 µM; hits with a dose series show IC50 in µM;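 active = displacement above 50% without optical interference and an IC50 on retest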;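 also: ATPase domain with a fluorescein-tagged ATP probe; 0% = vehicle and 100% = excess ADP; read after one hour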
MT1-MMP reporter: inhibitors of MT1-MMP promoter transcription, cell-based, luciferase reporter, luminescence (AID 618) | actives 0.62% (n = 87,000) | MT1-MMP promoter luciferase reporter cells, luminescence | calls from a first round at 10 µM; hits with a dose series show EC50 in µM;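 active = over half of the reporter light lost at 10 µM or EC50 under 50 µM; inactive = the rest and hits that failed the dose series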;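 also: actives suppress MT1-MMP promoter-driven transcription so potencies describe inhibitors; HT1080 fibrosarcoma cells; overnight exposure; toxic or luciferase-blocking compounds were not removed from the actives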
Active calls of the source: *; i = inactive; . = not tested or not shown. Rows were taken by chance. About 0.8% of those tested had a hit in this group.

The opening 2 compounds, to show the layout:
SMILES | WNV protease inh | Hsc70 ATP site | MT1-MMP reporter
CCOC(=O)C1=C(C)NC(=O)NC1c1ccc(N(C)C)cc1 (stereo not given) | -0.2 | 0.1% | i
CCOc1cc(C(=O)NC(C)COC)cc(OCC)c1OCC (stereo not given) | -0.99 | 1.5% | i

This part in full, from the first entry:
SMILES | WNV protease inh | Hsc70 ATP site | MT1-MMP reporter
CCOC(=O)C1=C(C)NC(=O)NC1c1ccc(N(C)C)cc1 (stereo not given) | -0.2 | 0.1% | i
CCOc1cc(C(=O)NC(C)COC)cc(OCC)c1OCC (stereo not given) | -0.99 | 1.5% | i
C[C@H](NC(=O)OC(C)(C)C)c1nnc(SCC(N)=O)o1 | 0.36 | 1.1% | i
CCC(C)(C)n1nnnc1C(C(C)C)N1CCSCC1 (stereo not given) | 0.6 | 0.3% | i
O=C(NCc1ccco1)C(c1cccs1)N(C(=O)C1COc2ccccc2O1)c1cccc(O)c1 (stereo not given) | -1.2 | 4.1% | i
Cc1ccc(N2CCN(c3cc(C)nc4c5c(C)cc(C)nc5nn34)CC2)cc1 | -0.93 | -5.8% | i
CC1CCN(CCCn2c(=S)[nH]c3ccc(N4CCOCC4)cc3c2=O)CC1 | 0.85 | 5.1% | i
CCOC(=O)c1ccc(N2C(=O)c3n[nH]c(C)c3C2c2ccccn2)cc1 (stereo not given) | -0.59 | 4.1% | i
O=C(NCCC1=CCCCC1)c1ccc2c(c1)N(Cc1ccccc1)C(=O)CS2 | . | -0.8% | i
CC1CCN(C(=O)C2c3ccccc3C(=O)N3CCc4ccccc4C23)CC1 (stereo not given) | 0.5 | -3.4% | i
CC1=C(C(=O)OC(C)C)C(C2CC=CCC2)NC(=O)N1 (stereo not given) | 0.88 | -7.6% | i
Cn1cnnc1SCc1ccc(C#N)cc1Cl | -0.26 | 4.8% | i
O=C(NCc1ccc2c(c1)OCO2)c1ccc(C2SCC(=O)N2Cc2ccco2)cc1 (stereo not given) | 0.08 | -11% | i
COc1ccc(CCNCc2csc3nc4ccccc4n23)cc1OC | -0.51 | 1.0% | i
O=C(c1n[nH]c2c1CCCC2)n1ccnc1 | -0.48 | -12% | i
O=C(COc1ccc(Br)cc1)Nc1ccncc1 | . | -5.4% | i
CC(=O)Nc1nc(=S)ss1 | -0.52 | -2.2% | i
Cc1ccc(C(=O)NCc2ccccn2)c(Cl)c1 | . | 1.2% | i
O=C(CN1C(=O)COc2ccccc21)N1CCc2ccccc21 | 0.07 | -1.9% | i
COC(=O)c1ccccc1NC(=O)CSc1nnc(-c2ccncc2)o1 | 0.11 | -6.0% | i
Nc1c(C(=O)NCc2ccco2)sc2nc(N3CCOCC3)c3c(c12)CCCC3 | -0.55 | 4.6% | i
Cc1cccc(Nc2ccccc2C(=O)O)c1C | -0.9 | -0.9% | i
Cc1nc2c(-c3ccccc3)c(C)nn2c(N)c1-c1ccccc1 | . | 1.2% | i
CC1=CC(C)(C)N2C(=O)C3(C(C#N)=C(N)Oc4cc(C)oc(=O)c43)c3cc(C)cc1c32 (stereo not given) | . | 0.3% | i
O=C(Nc1ccc(Cl)cc1)N1CC=CCC1 | -0.73 | -5.6% | i
SMILES | WNV protease inh | Hsc70 ATP site | MT1-MMP reporter
COc1ccc(OCc2nnc3n2N=C(c2ccc(Br)cc2)CS3)cc1 | -0.33 | -0.9% | i
COCC(=O)N(Cc1ccco1)c1nnc(C2CCOC2)s1 (stereo not given) | 0.83 | -3.8% | i
O=C(CSc1oc(-c2cccs2)nc1S(=O)(=O)c1ccc(F)cc1)NCC1CCCO1 (stereo not given) | -0.45 | 0.3% | i
CCCc1nc(SCC(=O)Nc2cc(C)on2)c2ccccc2n1 | -0.55 | 1.8% | i
CCCn1nc(NS(=O)(=O)c2ccccc2)c2cc3ccccc3nc21 | 0.3 | 4.6% | i
CCOC(=O)NC(CC(=O)O)c1ccc(OC)c(OC)c1 (stereo not given) | . | -3.3% | i
COCCn1c(-c2ccco2)nc2nc3ccccc3nc21 | 5 | -0.7% | i
CC1CCC(NC(=O)c2ccc3nc[nH]c3c2)CC1 (stereo not given) | . | 0.7% | i
O=C(CCn1c(=S)[nH]c2ccccc2c1=O)NCC1CCCO1 (stereo not given) | 0.96 | 1.9% | i
COc1ccccc1OCc1nnc(SCC(=O)N2CCCCC2)n1-c1ccccc1 | -1.1 | -3.9% | i
COc1cc(-c2nnc(COC(=O)CSc3cc(C)c4ccccc4n3)o2)cc(OC)c1OC | -1.2 | -2.4% | i
N#Cc1cc2c(nc1SCC(=O)Nc1nccs1)CCCCC2 | 0.22 | -12% | 7.8µM*
O=C(CSc1nnc(CNc2cccc(Cl)c2)o1)OC1CCCCC1 | . | -1.2% | i
CCN(CC(=O)Nc1ccccc1OC)C(=O)Cn1cnc2ccccc2c1=O | . | -2.1% | i
CCOC(=O)C1CCN(c2c(N3CCN(c4ccccc4OC)CC3)c(=O)c2=O)CC1 | -0.25 | 4.0% | i
CCOC(=O)C(C)Sc1nnc(-c2ccccc2O)n1-c1ccc(C)cc1 (stereo not given) | 1.4 | -2.8% | i
COc1ccc(-c2ccc(-c3noc(-c4ccccc4)n3)c(OC)n2)cc1 | 0.22 | -36% | i
Cc1ccccc1Cn1c(=N)n(CC(=O)c2ccco2)c2ccccc21 | -0.56 | 0.6% | i
Cn1c(=O)n(Cc2ccco2)c(=N)c2c3c(sc21)CCC3 | 0.19 | -2.3% | i
CS(=O)(=O)N1CCC(C(=O)Nc2ccccc2Sc2ccccc2)CC1 | -0.52 | 5.8% | i
CNC(=O)c1c(O)c2cccc3c2n(c1=O)CC3 | -0.56 | -2.2% | i
O=C(Cn1c(=O)n(CCC(=O)N2CCc3ccccc3C2)c(=O)c2ccccc21)NCC1CCCO1 (stereo not given) | -0.7 | -2.5% | i
O=C(NC1CCCCC1)C1CCCN1C(=O)NCc1ccccc1 (stereo not given) | 0.43 | -1.7% | i
CC(=O)OC[C@H]1O[C@@H](n2ncc(=O)[nH]c2=O)[C@H](OC(C)=O)[C@@H]1OC(C)=O | -0.04 | 3.9% | i
CC(NS(=O)(=O)c1ccc(OCC(=O)N2CCOCC2)c(Cl)c1)c1ccccc1 (stereo not given) | -0.6 | 5.9% | i

Random excerpt: 5 compounds from above, in no set order.
SMILES | WNV protease inh | Hsc70 ATP site | MT1-MMP reporter
O=C(Cn1c(=O)n(CCC(=O)N2CCc3ccccc3C2)c(=O)c2ccccc21)NCC1CCCO1 (stereo not given) | -0.7 | -2.5% | i
Cc1nc2c(-c3ccccc3)c(C)nn2c(N)c1-c1ccccc1 | . | 1.2% | i
COc1ccc(OCc2nnc3n2N=C(c2ccc(Br)cc2)CS3)cc1 | -0.33 | -0.9% | i
CC1CCC(NC(=O)c2ccc3nc[nH]c3c2)CC1 (stereo not given) | . | 0.7% | i
O=C(COc1ccc(Br)cc1)Nc1ccncc1 | . | -5.4% | i

Carrying on.
SMILES | WNV protease inh | Hsc70 ATP site | MT1-MMP reporter
O=C(NCCCO)C12CC3CC(CC(C3)C1)C2 | . | -5.1% | i
CC1CCN(CC(=O)Nc2ccccc2C#N)CC1 | -0.04 | -0.8% | i
Cc1cc(NCc2ccco2)nc2cc(O)ccc12 | 2.1 | 3.8% | i
COC(=O)c1[nH]c2ccccc2c1NS(=O)(=O)c1ccc(OC)cc1OC | -0.62 | -1.2% | i
CCn1ncc(Br)c1C(=O)Nc1ccccc1C(=O)OC | . | -0.7% | i
O=C1COc2ccc(C(=O)CSc3nnnn3-c3ccccc3)cc2N1 | 0.85 | -1.7% | i
CCOC(=O)c1nc(Nc2ccc(C(=O)O)cc2)c2ccccc2n1 | -0.33 | -3.4% | i
Cc1nn(C)c(C)c1NC(=O)c1ccc(S(=O)(=O)N(C)C)cc1 | -1.1 | 1.0% | i
O=C(NC1=NCCS1)c1ccc(-c2ccc(Cl)cc2)o1 | 1.8 | 2.2% | i
CCc1ccc2c(c1)c1nc(C)sc1n2CC(=O)OC | . | 2.7% | i
O=C(COc1ccc(Cl)cc1Cl)Nc1ccc(Cl)cn1 | 0.25 | -1.6% | i
Cn1c(=O)[nH]c(=O)c2c1nc(SCCN1CCCCC1)n2Cc1ccccc1 | -0.03 | -5.0% | i
COc1cccc(OC)c1C(=O)N1CCN(Cc2ccccc2C(F)(F)F)CC1 | 1 | 6.9% | i
CC1=C(C#N)C(C)C2=C(CC(C)(C)CC2=O)N1 (stereo not given) | 2.5 | 3.5% | i
Cc1ccc(S(=O)(=O)c2c(N)n(CCCO)c3nc4ccccc4nc23)cc1 | . | 1.3% | i
COc1ccc(Cn2nnnc2C(c2cccs2)N2CCN(c3ccc([N+](=O)[O-])cc3)CC2)cc1 (stereo not given) | . | -2.4% | i
COC(=O)Cn1cc(C(=O)c2cccs2)c2ccccc21 | -0.99 | 0.9% | i
CCOc1ccc(NC(=O)CCNS(=O)(=O)c2ccc(Br)s2)cc1 | . | 2.5% | i
COC(=O)c1c[nH]n2c(=O)c(Cc3ccc(F)cc3Cl)c(C)nc12 | -0.72 | 0.5% | i
O=C(O)COc1ccc(C(=O)Cc2ccc3c(c2)OCCCO3)c(O)c1 | 0.15 | 7.4% | i
Cc1cccc(N2CCN(C(c3ccccc3)c3nnnn3CC3CCCO3)CC2)c1C (stereo not given) | 0.06 | 3.1% | i
O=C(c1cccnc1)N1CCN(S(=O)(=O)c2ccc(Cl)cc2)CC1 | . | -2.2% | i
Cc1sc2ncnc(NCc3cccs3)c2c1C | . | -0.3% | i
COc1ccc2cc(C#N)c(SCC(=O)N3CCCC3)nc2c1 | -0.21 | -3.2% | i
CCc1ccc(NC(=O)C(=O)NCCN2CCN(C(=O)c3ccco3)CC2)cc1 | . | 2.5% | i

One compound at a time (already shown). Order of screens: WNV protease inh | Hsc70 ATP site | MT1-MMP reporter
CC1=C(C#N)C(C)C2=C(CC(C)(C)CC2=O)N1 (stereo not given) as listed: 2.5 | 3.5% | i
CCc1ccc(NC(=O)C(=O)NCCN2CCN(C(=O)c3ccco3)CC2)cc1 as listed: . | 2.5% | i

(list continues)
SMILES | WNV protease inh | Hsc70 ATP site | MT1-MMP reporter
Cc1nc2sc(C(c3cccc(F)c3)N3CCOCC3)c(O)n2n1 (stereo not given) | 0.85 | -0.8% | i
CCOC(=O)c1[nH]c2ccccc2c1NC(=O)C(CC)CC | -0.44 | 1.5% | i
CC1Cc2ccccc2N1C(=O)Cc1cccs1 (stereo not given) | -0.07 | -7.2% | i
Cc1ccc(-n2c(SCC(=O)Nc3ccc4cn[nH]c4c3)nnc2-c2ccco2)cc1 | 0.56 | 0.1% | i
c1cncc(-c2cccnc2)c1 | -1.1 | -5.0% | i
COc1ccc(N(CC(=O)Nc2cccc(C(C)=O)c2)S(C)(=O)=O)cc1OC | -0.54 | 1.3% | i
O=c1[nH]c(Nc2ccccc2)cc2ccccc12 | 0.31 | 45% | i
COc1ccc(CN2CCC(C(=O)NCCc3ccc(OC)c(OC)c3)CC2)c(OC)c1 | . | 4.5% | i
CCOc1cc(N2CCOCC2)c(OCC)cc1NC(=O)CN1C(=O)NC(Cc2ccccc2)C1=O (stereo not given) | -1.1 | 1.8% | i
COc1cc(NS(=O)(=O)c2ccc(NC(=O)COc3ccc(C)cc3C)cc2)nc(OC)n1 | . | 0.2% | i
Cc1cc(C)nc(NC(=NCCc2c[nH]c3ccccc23)NC(=O)c2ccco2)n1 | -1.1 | -9.9% | i
CCN(CC)C(=O)CSc1nc2sc3c(c2c(=O)n1-c1ccc(C)cc1)CC(C)(C)SC3 | . | -2.9% | i
COc1ccc2c(c1)C(C)=CC(C)(C)N2C(=O)CSc1nnc(-c2ccc(C)cc2)o1 | 1.2 | -2.0% | i
N#Cc1ccc(CSc2nnc(-c3cccnc3)n2-c2ccccc2)cc1 | -0.08 | -3.2% | i
N#Cc1ccsc1NC(=O)c1ccccn1 | 2.2 | 0.9% | i
Cc1ccc(NC(=O)CSc2nnc(Cn3c(=O)sc4ccccc43)n2C)cc1Cl | -0.51 | 0.2% | i
N#Cc1nc(-c2cccc3ccccc23)oc1N1CCCCC1 | -0.39 | -2.0% | i
CCN(CC)C(=O)CN(Cc1ccccc1)S(=O)(=O)c1ccc(F)cc1 | -0.71 | 4.3% | i
NC(=O)c1c(NC(=O)c2ccco2)sc2c1CCC2 | . | -5.7% | i
O=C1OC(Nc2nccs2)c2ccccc21 (stereo not given) | -0.17 | -4.3% | i
CCOC(=O)CSC1=Nc2ccccc2C2=NC(CC(=O)NCc3cccs3)C(=O)N12 (stereo not given) | -0.07 | 5.6% | i
CCOc1cccc2cc(C(=O)NCc3cccnc3)c(=O)oc12 | 1 | 0.7% | i
Cc1ccc(C2CC(c3ccc(Cl)cc3)n3nc(N)nc3N2)cc1 (stereo not given) | -0.83 | 4.9% | i
CC1CN(c2ccc(Oc3ccccc3)cc2)c2nc3c(c(=O)n(CC(N)=O)c(=O)n3C)n2C1 (stereo not given) | -0.21 | -1.3% | i
CC(C)(C)NC(=O)Cn1c(=O)oc2ccc(Cl)cc21 | -1.8 | -4.1% | i
CCCCOc1ccc(-c2ncc(C(=O)O)c(C)n2)cc1 | 0.17 | 0.3% | i
CCN1CCN(c2ncnc3c2cnn3-c2ccc(Cl)cc2)CC1 | 1.1 | -0.8% | i

Reformatted: 2 of the compounds above.
Compound,WNV protease inh,Hsc70 ATP site,MT1-MMP reporter
N#Cc1ccsc1NC(=O)c1ccccn1,2.2,0.9%,i
N#Cc1nc(-c2cccc3ccccc23)oc1N1CCCCC1,-0.39,-2.0%,i

Screening results as filed in PubChem BioAssay.
